# High-throughput results deposited in PubChem by several laboratories.
# Bfl-1 A1 inh: caspase 3/7 activation in MEF A1-2A-BIM cells, primary screen, A1 inhibitor project, cell-based, luminescence, HTS | Caspase-Glo 3/7 luminescence, 3 h; percent of clofoctol response, vehicle zero | caspase activation, % (test concentration not listed) | 0.066% of 330,000 active | AID 2462, 2010;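 active = over half of replicate activation scores above 10%, or exactly half above 10 with the replicate mean above 10; inconclusive = replicate mean below 10 yet half the replicates above 10; inactive = over half of replicates below 10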;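 also: wells of about 30 µL received 50 nL stock; many hits fall short of the cut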
# Vif A3G: inhibitors of Vif binding to APOBEC3G peptide, primary screen, biochemical, TR-FRET, GST-Vif 1-94, biotin-A3G peptide, dose response retest (AID 1117319). TR-FRET GST-Vif / biotin-A3G peptide binding; higher % means a stronger effect; test concentration not given here; strong numbers were not always called active. inhibition, %; hits with a dose series show IC50 in µM. 0.57% of 260,000 active;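 active = above the screen mean plus three standard deviations and confirmed in dose response; inconclusive = results disagree or hit not tested in dose response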;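 also: Vif residues 1-94 fused to GST binding biotinylated APOBEC3G peptide 110-148; 0% = full assay without inhibitor and 100% = GST in place of GST-Vif; retest series ran down from 100 µM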
# MLL AF4-AF9 inh: inhibitors of AF4 peptide binding to AF9, primary screen, biochemical, AlphaScreen, biotin-AF4 peptide, FLAG-AF9, single point; Protein AF-9 (Homo sapiens), P42568; inhibition, % at 10 µM; 0.47% of 350,000 active; AID 651704, 2012;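 active = every replicate reaching a set inhibition limit, whatever the replicate mean, cut at about 25% in these data; inconclusive = mean inhibition reaches that limit but some replicates miss it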;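 also: 0% = plate neutral control median and 100% = total signal loss; the record names both 10 and 1 µM as test concentration; the first replicate is given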
# Target sequence (P42568 whole entry, looked up): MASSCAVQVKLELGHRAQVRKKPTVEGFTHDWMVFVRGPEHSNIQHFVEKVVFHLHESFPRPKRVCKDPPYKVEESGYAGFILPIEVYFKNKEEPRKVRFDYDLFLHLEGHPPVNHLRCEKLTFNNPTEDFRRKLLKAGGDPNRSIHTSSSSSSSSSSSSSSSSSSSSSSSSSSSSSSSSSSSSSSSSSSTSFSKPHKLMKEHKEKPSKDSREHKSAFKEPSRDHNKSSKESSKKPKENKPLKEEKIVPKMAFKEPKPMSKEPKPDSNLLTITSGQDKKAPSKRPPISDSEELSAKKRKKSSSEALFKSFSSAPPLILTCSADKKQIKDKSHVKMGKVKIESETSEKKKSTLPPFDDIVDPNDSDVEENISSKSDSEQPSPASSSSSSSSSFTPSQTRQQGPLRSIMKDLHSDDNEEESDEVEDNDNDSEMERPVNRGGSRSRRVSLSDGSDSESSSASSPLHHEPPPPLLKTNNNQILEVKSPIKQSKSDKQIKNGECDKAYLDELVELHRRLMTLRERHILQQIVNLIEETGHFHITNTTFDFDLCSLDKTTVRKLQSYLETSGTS
# T cruzi repl: inhibitors of intracellular T. cruzi growth, primary screen, luminescence, NIH3T3 host cells; 1.4% of 300,000 active; T. cruzi beta-gal in NIH3T3, 90 h; AID 1885, 2009; inhibition, % (test concentration not listed);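 active = mean inhibition across valid replicates above about 55%, limit read from the data; inconclusive = mean below that limit but half or more replicates reach it; inactive = mean below it, under half of replicates reach it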;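 also: signal also drops with host cell toxicity which is not excluded here; 0% = plate median of DMSO wells and 100% = zero luminescence signal; higher percent means less beta-gal luminescence so fewer parasites; stock transfer was 50 nL into about 50 µL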
# RanGTP-Impb inh: inhibitors of RanGTP-importin-beta interaction, primary screen, biochemical, FRET, CFP-Ran, YFP-importin-beta, homogeneous | cell-free CFP-Ran/YFP-importin-beta FRET ratio | inhibition, % (concentration not given with the values) | AID 2216, 2009 | 1.1% of 300,000 active;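 active = most replicates above 15%; inconclusive = exactly half above 15%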;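 also: 0% = DMSO wells and 100% = Ran loaded with GDP instead of GTP; wells of about 40 µL received 100 nL stock; the first replicate is given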
# Beta cell apopt: inhibitors of cytokine-induced beta cell apoptosis, primary screen, luminescence; INS-1E cytokine-induced death, ATP luminescence, 48 h; percent of positive-control rescue, neutral wells zero; protection from apoptosis, % (concentration not given with the values); 0.8% of 300,000 active; AID 435005, 2010;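 active = all replicates at 75% or more, or half of them and the mean; inconclusive = half reach 75% but not the mean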;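 also: 0% = cytokine-treated negative control wells and 100% = positive control rescue; higher means more ATP so stronger rescue from cytokine killing; wells of about 40 µL received 100 nL stock; the first replicate is given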
# Ecoli rRNA inh: reduced GFP signal of wild-type E. coli, primary screen, bacterial rRNA inhibitor project, GFP/RFP fluorescence, OD600, single point; E. coli WT GFP vs humanized-ribosome RFP mutants, 24 h; active compounds read low; DMSO median 0, no signal -100; GFP signal change (wild-type ribosome), % (test concentration not listed); 1.6% of 350,000 active;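 active = significant combined selectivity score with lowered wild-type GFP, culture density cut under 30%, mutant RFP and density less affected; inactive = any of these conditions unmet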; also: one replicate is shown; some compounds called inactive have numbers as strong as hits
# Calb FLC: C. albicans growth inhibition with fluconazole, primary screen, CaCi-2 strain, Alamar Blue fluorescence; AID 1979, 2009; 0.57% of 300,000 active; C. albicans CaCi-2 (fluconazole-resistant clinical isolate) + fluconazole, 48 h; growth inhibition, % (test concentration not listed);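 active = most replicates above 75%; inconclusive = exactly half above 75%; inactive = most below 75%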;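 also: all wells also contain fluconazole at 8 µg/ml as a sub-toxic cotreatment; 0% = median of DMSO wells and 100% = median of geldanamycin control wells; wells of about 8 µL received 7.5 nL stock; the first replicate is given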
# Ecoli rRNA inh OD600: also measured in Ecoli rRNA inh; calls as there; OD600 change, %; measured here: OD600 growth;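 optical density of the mix in the first replicate; 0 = DMSO median and -100 = no signal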
# Ecoli rRNA inh RFP: further read-out of Ecoli rRNA inh, marked with its call; RFP signal change, %; measured here: RFP humanized mutant strains;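 first replicate; 0 = DMSO median and -100 = no signal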
# Numbers without * were called inactive; ? = inconclusive; / = not tested or not shown.
structure	MLL AF4-AF9 inh	RanGTP-Impb inh	Beta cell apopt	Bfl-1 A1 inh	Ecoli rRNA inh	Ecoli rRNA inh RFP	T cruzi repl	Calb FLC	Ecoli rRNA inh OD600	Vif A3G
Cn1c(N)c(C(=O)COC(=O)CNS(=O)(=O)c2cccc(Cl)c2)c(=O)n(C)c1=O	/	7.7	-5	0.2	/	/	-12	24	/	/
Cc1cc(C(=O)COC(=O)C23CC4CC(CC(O)(C4)C2)C3)c(C)n1-c1c(C)n(C)n(-c2ccccc2)c1=O	0.0	1.2	0	-0.3	-2	-2.1	7	-5	5	2%
Cc1cc2n(n1)C(c1ccc3c(c1)OCO3)Nc1c(C)cccc1-2 (stereo unspecified)	/	0.4	-7	0.0	/	/	8	-21	/	2%
CCOc1cc(C)c(S(=O)(=O)NC2CCCCC2)cc1C	/	4.9	9	-0.7	/	/	-6	-31	/	4%
COCCN1Cc2cc3cc(C)ccc3nc2SC1=Nc1cccc(OC)c1	3.6	-2.2	-10	-0.7	0	4.3	22	-1	0	8%
COc1cccc(C(=O)NCC2(c3ccc(OC)c(OC)c3)CCCC2)c1	-1.4	1.5	4	-0.2	3	-0.6	-19	-17	-1	/
O=C(NCCc1c[nH]c2ccccc12)C(=O)NCC(c1ccco1)N1CCN(c2ccc(F)cc2)CC1 (stereo unspecified)	-0.7	2.6	-1	0.1	6	-1.7	1	5	0	1%
COc1ccc2c(c1)CCc1c(C(=O)NCc3ccco3)noc1-2	-3.7	-4.7	5	-0.8	-12	1.7	25	39	-5	2%
O=C(NN1C(=O)c2ccccc2NC1c1ccccc1OCc1ccccc1)c1ccncc1 (stereo unspecified)	/	3.6	/	0.4	/	/	-2	9	/	-6%
O=C1NC(=Nc2ccccc2Cl)SC1(CO)CO	-11	3.3	-2	-0.4	4	-1.9	1	1	6	/
Nc1nc(Sc2ccc(C(F)(F)F)cc2[N+](=O)[O-])n[nH]1	/	?	-4	-0.2	/	/	-2	-4	/	7%
Cc1cc(C)c2cc(CN(CCN3CCCC3)C(=O)Nc3ccc(F)cc3)c(=O)[nH]c2c1	/	-1.4	1	1.6	/	/	14	-1	/	24%
CCCNC(=O)C1CCN(S(=O)(=O)c2cccc3nonc23)CC1	-0.5	1.2	2	-1.1	20	3.1	-9	-13	6	-3%
CCc1nc(SCC(=O)O)c(C#N)c2c1CCCC2	-2.3	-0.3	4	0.0	-6	-7.0	-2	29	-17	/
COc1ccc(N2CCC(CNC(=S)Nc3c(C)cc(C)cc3C)C2)cc1 (stereo unspecified)	23	0.5	11	0.0	-16	25	20	-1	-3	8%
CCCCCCOC(=O)c1ccc(N)cc1	4.3	-1.1	0	-0.1	3	4.3	-3	-23	5	7%
COc1cc2c(cc1NS(=O)(=O)N1CCCC1)oc1ccccc12	/	-6.1	/	/	/	/	8	5	/	17%
CCOc1ccc(-c2cc(N)n(S(=O)(=O)c3ccc(OC)cc3)n2)cc1	8.5	5.4	-4	0.2	-4	8.7	7	-5	-15	0%
COC(=O)CCC(=O)COc1ccccc1C#N	/	1.9	-1	0.4	/	/	-22	-12	/	-5%
O=C(CCc1nc2ccccc2[nH]1)N1CCc2ccccc2C1	-3.4	?	-3	-3.4	-7	1.0	6	7	-6	10%
O=C(Nc1ccc(F)cc1)C1CCN(c2ncnc3c2nc2n3CCCCC2)CC1	-3.6	0.7	3	-1.0	-4	1.7	-11	-19	-2	/
Cc1cccc(C(=O)OCC(=O)NCCCc2ccccc2)c1	-2.9	5.8	/	0.2	4	1.2	-16	-11	-1	1%
CCOC(=O)n1c(=O)n(Cc2ccccc2)c2ccccc21	/	-1.3	-5	0.7	/	/	-7	18	/	1%
COc1cccc(/C=C2\SC(=S)N(NC(=O)c3ccncc3)C2=O)c1	-0.9	0.9	13	1.9	-15	-3.9	0	16	2	12%
CC/C(=C/c1sc2ccccc2[n+]1CC)SC	/	0.3	6	0.0	/	/	15	-19	/	?
CCN1CCN(C(=O)CCS(=O)(=O)c2cc3c(cc2Cl)NC(=O)CO3)CC1	1.2	?	-3	-0.5	14	1.5	-5	5	10	1%
COc1ccccc1OCCCCNC(C)(C)C	-0.4	1.4	/	1.1	13	2.0	-13	-9	5	-2%
CC(C)(C)[C@H]1C=C(C(=O)Nc2ccccc2)O[C@@H](OCCCCO)C1	-0.8	6.4	-4	0.3	/	/	-14	20	/	/
O=C1C=C(NCc2ccco2)C2(CCCCC2)O1	/	0.0	-6	0.9	/	/	-17	-1	/	5%
COc1ccc(NC(=O)Nc2cc(F)ccc2C)cc1	-0.1	5.0	2	-3.9	9	-4.2	7	-1	-4	-7%
COc1ccc(S(=O)(=O)Nc2ccc3c(c2)CCC3)cc1	1.2	-3.2	4	0.9	-53	-14	3	9	-75	/
Cc1[nH]c(=O)[nH]c(=O)c1CSc1nnc(CCCCCNC(=O)OC(C)(C)C)o1	/	-1.7	-2	0.2	5	-1.5	-8	-8	1	-4%
Nc1ncc(Br)cc1S(=O)(=O)NC1CCCCC1	-2.5	1.2	-6	-1.5	-8	-1.9	0	3	-8	/
NC(=O)COc1ccc(C(=O)/C=C2/C(=O)Nc3ccccc32)cc1	-0.1	1.4	/	1.9	7	-6.7	0	-1	5	/
Nn1c(-c2ccccc2)nc2ccccc2c1=O	-9.2	1.4	-5	0.3	7	6.2	-11	-2	3	-8%
O=C(Nc1ncn[nH]1)c1ccc(Cl)c(S(=O)(=O)Nc2ccc(Cl)cc2)c1	1.7	1.6	-6	-0.5	-13	4.7	-8	12	-9	-4%
O=C(C(NS(=O)(=O)c1cccs1)c1ccccc1)N1CCN(c2ccccc2F)CC1 (stereo unspecified)	/	2.3	/	-0.1	/	/	8	10	/	?
Cc1cc(C(=O)CSc2nc3ccccc3[nH]2)c(C)n1C	/	-4.4	-2	0.3	/	/	-10	-12	/	?
CC(C)NC(=O)CN(Cc1ccccc1)S(=O)(=O)c1ccccc1	/	-1.9	6	0.2	/	/	6	-6	/	-2%
CSc1ccccc1C(=O)Nc1cccc([N+](=O)[O-])c1	3.8	-1.4	-4	-0.9	-3	1.2	-8	7	4	-1%
Cc1ccc(NC(=O)C2=C(C(=O)O)CCCC2)cc1Br	2.0	1.3	0	-0.4	6	5.5	-5	-58	13	-2%
Cc1ccc(S(=O)(=O)NCCCCCC(=O)Nc2cccc(C)c2)cc1	/	3.5	-11	-0.8	/	/	-11	-17	/	-1%
CCOC(=O)c1ccc(NC(=S)N2CCCC(C(=O)OCC)C2)cc1 (stereo unspecified)	-0.2	-0.1	-8	2.5	-12	4.0	-9	10	-11	/
Cc1cccc(CSc2ccc3nnc(-c4cccs4)n3n2)c1	-0.6	2.2	3	0.1	3	-0.7	20	-27	9	/
CC(C)(C)c1ccc(OCC(O)CS(=O)(=O)c2ccccn2)cc1 (stereo unspecified)	/	5.7	-1	0.4	/	/	14	21	/	17%
COc1ccc(NC(=O)CN(C)C(=O)c2cc(CN3C(=O)c4ccccc4C3=O)ccc2OC)cc1	3.5	0.5	/	1.0	0	-0.8	-1	-6	4	-2%
CC(C)c1ccc(NC(=O)C(c2ccccc2)N(C)C(=O)c2cnccn2)cc1 (stereo unspecified)	-4.0	-3.3	2	2.3	15	-10	4	-6	11	1%
O=C(O)c1ccc2nc(-c3ccccc3)c(-c3ccccc3)nc2c1	/	-1.4	-4	-0.8	/	/	4	-2	/	/
CN(c1ccccc1)S(=O)(=O)c1cccc(C(=O)NNC(=O)c2ccncc2)c1	2.0	-2.1	0	1.2	-1	-0.5	5	1	-1	0%
O=C(c1c(F)cccc1F)N1CCCc2ccccc21	2.9	5.7	-4	1.7	8	5.5	14	1	2	-8%
CCCN(CC(=O)Nc1ccc(C(N)=O)cc1)CC(=O)Nc1ccc(F)c(F)c1F	0.4	0.3	1	-0.3	9	-0.6	-5	-4	7	-2%
O=C1N=C(N2CCOCC2)S/C1=C/c1cccs1	/	-1.6	-9	0.9	/	/	-13	23	/	2%
Oc1ccc(O)c(Cc2nc3ccccc3s2)c1	0.5	1.0	-12	-0.1	-14	7.9	-42	44	-5	6%
CON1C(=O)C(=O)N(OC)C2CCCCC21 (stereo unspecified)	/	6.3	/	/	/	/	-3	-4	/	4%
CS(=O)(=O)N(CC(=O)NCCC1=CCCCC1)C1CCCCC1	/	2.7	-9	0.7	/	/	8	-5	/	5%
CCOc1ccc(C(=O)NCc2ccncc2)cc1OCC	/	2.3	2	-0.9	/	/	-16	2	/	-3%
Clc1nnc(NN=C2CCCC2)c2ccccc12	/	13	-2	0.0	/	/	15	33	/	?
O=C(C1CCN(S(=O)(=O)c2cccs2)CC1)N(c1ccccn1)C1CCCCC1	-1.1	-1.5	2	-0.8	25	-0.7	7	-9	12	-13%
Cc1cc(C(=O)OCC(=O)c2ccc(Br)s2)no1	9.0	5.3	-6	-0.9	9	-13	-14	-1	6	-45%
COc1ccc(C(=O)NC(=S)Nc2cccnc2)cc1OC	-1.8	-0.5	-2	-0.7	-10	-0.5	3	30	1	13%

# (further entries)
structure	MLL AF4-AF9 inh	RanGTP-Impb inh	Beta cell apopt	Bfl-1 A1 inh	Ecoli rRNA inh	Ecoli rRNA inh RFP	T cruzi repl	Calb FLC	Ecoli rRNA inh OD600	Vif A3G
CCN(CC)S(=O)(=O)c1ccc2oc(C(=O)NC3CCCc4ccccc43)c(C)c2c1 (stereo unspecified)	2.6	2.6	9	-0.4	10	-5.6	81*	23	4	7%
O=C(Nc1ccc(NC(=O)c2cccs2)c(Cl)c1)c1ccco1	1.0	1.6	-6	-0.1	-27*	-2.5*	10	-3	-21*	4%
CC1(C(=O)NC2CCCC2)CCC(=O)N1Cc1ccccc1 (stereo unspecified)	/	?	-4	0.5	/	/	-6	-10	/	16%
C=CCS(=O)(=O)c1cccc2cccnc12	-1.6	-3.5	-4	0.3	24	1.4	-14	-18	14	12%

# Not all compounds are listed. The share of hits here may be higher or lower than overall.
